Source: PubChem
StopGo reporter – High Throughput Screening for Foot and Mouth Disease Virus Antivirals. human cells with a luciferase reporter of 2A StopGo recoding; control for the full effect not named in the record. Potency, µM (doses to about 57.9 µM), for inactives: at the top dose signal change, negative = less light. 410,000 tested, 1.2% active. AID 1159524, 2015; active = well fitted falling curve with a large enough effect; inconclusive = small, poorly fitted or top-dose-only effect; inactive = no such curve, though single readings can be large or run the other way; tested in HEK293T cells; further: on the % scale 0 is the no-effect control and ±100 the full control effect; nearly all actives have a fitted effect of over 45% in size; luciferase light after 4 h
RE007 growth inh – qHTS Assay for Inhibitors of the HIV-1 protein Vpr; S. pombe RE007 Vpr strain, BacTiter-Glo ATP luminescence, 24 h; control for the full effect not named in the record; Potency, µM (doses to about 92.2 µM), without a hit: top-dose activity change, negative = less growth; AID 651644, 2012; 360,000 tested, 0.21% active; active = well fitted falling curve with a large enough effect; inconclusive = small, poorly fitted or top-dose-only effect; inactive = no such curve, though single readings can be large or run the other way;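 further: on the % scale 0 is the no-effect control and ±100 the full control effect; nearly all actives have a fitted effect of over 50% in size; the assay follows cell death caused by Vpr and the record does not say whether a fall means rescue or toxicity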
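Fission yeast strain RE007, carrying one chromosomally integrated HIV-1 vpr copy, was seeded at OD 0.01 in PMG+AL medium with 23 nL pinned compound. After 24 h at 30 °C and 99% humidity, viability was read by BacTiter-Glo luminescence.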
Cruzain inh Det – qHTS Assay for Promiscuous and Specific Inhibitors of Cruzain (with detergent); Cruzipain (Trypanosoma cruzi), P25779; purified cruzain, Z-FR-AMC fluorescence, 0.01% Triton; Potency, µM, for inactives: max response, negative = inhibition, most hits filed as inhibitors; 200,000 tested, 0.43% active; AID 1478, 2009;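 further: plate controls were neutral wells for no effect and buffer without enzyme for full effect; nearly all actives have a fitted effect of over 40% in size; top concentration of the series not given in the record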
Target sequence (P25779 123-467 limits assumed): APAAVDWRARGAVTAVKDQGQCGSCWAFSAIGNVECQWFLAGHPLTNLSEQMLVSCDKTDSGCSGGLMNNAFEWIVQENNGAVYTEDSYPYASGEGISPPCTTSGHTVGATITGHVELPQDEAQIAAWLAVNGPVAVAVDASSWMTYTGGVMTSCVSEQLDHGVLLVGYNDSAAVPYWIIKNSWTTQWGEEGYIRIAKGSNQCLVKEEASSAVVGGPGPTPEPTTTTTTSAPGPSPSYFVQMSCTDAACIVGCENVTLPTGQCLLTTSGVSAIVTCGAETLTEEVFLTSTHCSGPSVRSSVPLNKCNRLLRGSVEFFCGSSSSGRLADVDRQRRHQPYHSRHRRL
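Sodium acetate buffer (100 mM, pH 5.5) containing 5 mM DTT and 0.01% Triton X-100 hosted 1.5 nM cruzain and test compound for 15 min at room temperature. Cleavage of 2 uM Z-FR-AMC was then tracked by fluorescence.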
Marburg entry inh – qHTS for inhibitors of binding or entry into cells for Marburg Virus. 300,000 tested, 1.8% active. Potency, µM (series often up to 37.8 µM), for the others: top-dose activity change, negative = inhibition, usual class: inhibitors. Marburg virus pseudotyped entry inhibition, cell reporter; control for the full effect not named in the record; about a third of the inactives were read at about 46 µM; active = well fitted inhibition curve with a large enough effect; inconclusive = small, poorly fitted or top-dose-only effect, or effect the other way; inactive = flat fitted curve, though single readings scatter; tested in HEK293 cells; about a fifth of its hits are not listed in these tables; further: on the % scale 0 is the no-effect control and ±100 the full control effect; luciferase read-out
NS1 inh – qHTS Assay for Inhibitors of Influenza NS1 Protein Function. 270,000 tested, 0.4% active. Potency, µM (top dose mostly 46.1 µM), inactives show top-dose activity, positive = more growth. S. cerevisiae slowed by influenza A NS1, growth recovery by OD600. AID 2326, 2010; active means well fitted rising curve with a large enough effect; inconclusive means small, poorly fitted or top-dose-only effect; inactive means no such curve, though single readings can be large or run the other way; further: nearly all actives have a fitted effect of over 50% in size
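In this qHTS, NS1 from influenza A is expressed in budding yeast, where it slows growth. Cells are switched from glucose to 2% galactose medium (pH 6.0, -URA), treated with compound, and growth recovery is read at OD600.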
SARS PLpro yeast – qHTS of Yeast-based Assay for SARS-CoV PLP. S. cerevisiae expressing SARS-CoV PLpro, growth rescue; control for the full effect not named in the record. Potency, µM (series often up to 32.9 µM), for inactives: top-dose activity, positive = growth rescue. 330,000 tested, 0.19% active. AID 485353, 2010; active means well fitted rising curve with a large enough effect; inconclusive means small, poorly fitted or top-dose-only effect; inactive means no such curve, though single readings can be large or run the other way; further: 0% is about no effect; nearly all actives have a fitted effect of over 55% in size; growth read by luminescence after 48 h
Cruzain noTriton – qHTS Assay for Promiscuous and Specific Inhibitors of Cruzain (without detergent); Cruzipain (Trypanosoma cruzi), P25779; purified cruzain, Z-FR-AMC fluorescence, no detergent; Potency, µM, without a hit: max response, negative = inhibition, actives largely listed as inhibitors; 200,000 tested, 2.3% active; AID 1476, 2009;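 further: plate controls were enzyme without inhibitor for no effect and buffer without enzyme for full effect; nearly all actives have a fitted effect of over 40% in size; top concentration of the series not given in the record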
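Detergent-free condition (0.00005% Triton X-100) in acetate buffer pH 5.5 with DTT. 1.5 nM enzyme and compound were pre-mixed 15 min, then 2 uM Z-FR-AMC substrate added; reaction progress from fluorescence change between first and third reads (60 s).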
Lassa entry inh – qHTS for Inhibitors of binding or entry into cells for Lassa Virus; 300,000 tested, 1.2% active; Lassa virus pseudotype entry inhibition, cell reporter; control for the full effect not named in the record; Potency, µM (top dose mostly 37.9 µM), for the others: top-dose activity change, negative = inhibition, hits mostly inhibitors; active means well fitted inhibition curve with a large enough effect; inconclusive means small, poorly fitted or top-dose-only effect, or effect the other way; inactive means flat fitted curve, though single readings scatter; tested in HEK293 cells; further: on the % scale 0 is the no-effect control and ±100 the full control effect; nearly all actives have a fitted effect of over 50% in size; luciferase read-out
* hit, by the source's call; ? = inconclusive; . = no result given; & = joins results of further samples; [ ] = another dose, or the depositor's remark. Unless noted, the call rests on the fitted dose curve; in most records, active means well fitted curve in the direction sought with a large enough effect; inconclusive means small, poorly fitted or top-dose-only effect, or another doubt; inactive means no such curve, though single readings can be large; an effect the other way counts as inactive or inconclusive. Potency means the concentration at half of the fitted maximal effect.

| compound | StopGo reporter | RE007 growth inh | Cruzain inh Det | Marburg entry inh | NS1 inh | SARS PLpro yeast | Cruzain noTriton | Lassa entry inh |
| --- | --- | --- | --- | --- | --- | --- | --- | --- |
| O=C(N/N=C1/CCCc2ccccc21)C(c1ccccc1)c1ccccc1 | -6% | 9% | 0.6% | ? | 3% | 2% | -14% | 2% |
| CCCc1cc(C(=O)N/N=C/c2ccc(C)o2)c2ccccc2n1 | -25% | 14% | -1.3% | ? | -37% | -1% | -4% | ? |
| COC(=O)c1ccc(C(=O)OC)c(NC(=O)C2CC2)c1 | -30% | ? | 2.6% | ? | -6% | 13% | -16% | 5% |
| Cc1cc(NC(=O)COC(=O)c2c(C)nn(-c3ccccc3)c2C)no1 | -14% | 8% | -1.4% | ? | -52% | 7% | -5% | 18µM* |
| CCS(=O)(=O)NCCc1csc(C)n1 | 14% | 12% | 8.5% | 1% | 2% | 5% | 1% | 8% |
| COc1ccc(C(=O)Nc2ccc(S(=O)(=O)Nc3cc(C)nc(C)n3)cc2)cc1 | 9%&52% | 14% | -1.5% | -2%&-2%[46.1 µM] | -8% | 1% | -5% | 22%[46.1 µM] |
| COc1ccc(-c2cn3c(n2)sc2cc(C(=O)Nc4ccc(F)cc4)ccc23)cc1 | 39%[activator] | . | -5.0% | . | . | . | 4% | 9%[46.1 µM] |
| COc1ccc(C(C)(C)C)cc1NC(=O)CCCN1C(=O)CN(C)C1=O | -19% | -13% | . | -3% | . | -4% | . | 16% |
| CC(c1ccccc1)n1cnc2ccccc2c1=O (centres undefined) | -8% | 10% | . | 2%[46.1 µM] | -6% | ? | . | 7%[46.1 µM] |
| O=C(O)CCN=C1CCc2ccccc2N1 | . | . | 1.4% | -5% | -1% | -1% | -5% | . |
| COc1ccc(S(=O)(=O)N2Cc3ccccc3CC2C(=O)Nc2ccc3c(c2)OCO3)cc1 (centres undefined) | 39%[activator] | 20% | -3.9% | 1%[46.1 µM] | 19% | -1% | 25µM* | 14% |
| CN1CCN(C(=O)c2cn(-c3ccccc3)nc2-c2cccs2)CC1 | 2% | 2% | . | . | 2% | 0% | . | . |
| CCOP(=O)(OCC)/C(=N/OC(=O)c1ccc(OC)cc1)C(N)=O | -25% | 21% | . | -5%[46.1 µM] | 1% | -1% | . | 8% |
| COc1cc(C(C(=O)Nc2c(C)cccc2C)N(C)C(=O)c2ccc(-n3cnnn3)cc2)ccc1O (centres undefined) | -16% | 6% | . | -1% | -18% | 1% | . | 4% |
| O=C(NCC1CCCO1)C(c1ccncc1)N(Cc1cccs1)C(=O)Cn1nnc(-c2ccc(F)cc2)n1 (centres undefined) | -13% | 7% | . | -14%[46.1 µM] | 1% | 0% | . | 5% |
| O=C(O)COc1ccccc1/C=N/NC(=O)CNC(=O)c1ccco1 | -2% | -6% | . | . | 15% | 0.4µM* | . | . |
| C[N+]1(CCC(=O)c2ccccc2)CCCCC1 | -18% | -2% | -23% | ? | 4% | 15% | -25% | 1% |
| COc1ccc2c(CC(=O)Nc3nc(C)cs3)coc2c1 | 0% | 17% | . | ? | -7% | -3% | . | 5% |
| COc1ccc(CCNC(=O)COc2ccc3c(C)cc(=O)oc3c2)cc1 | 3% | -3% | . | 0%[46.1 µM] | . | 1% | . | -2%[46.1 µM] |
| Cc1ccc(C(=O)N2CCN(c3ccccc3)CC2)cc1NC(=O)c1ccco1 | -23% | 8% | . | 7% | -4% | 0% | . | -3% |
| CCOC1C(=O)NC(=O)N1Cc1ccccc1 (centres undefined) | -6% | 14% | . | -2%[46.1 µM] | -1% | 1% | . | 15%[46.1 µM] |
| Cc1ccc(C(=O)NC2CCCC2)cc1S(=O)(=O)N1CCCCC1 | 17% | -12% | . | 5%[46.1 µM] | 13% | -4% | . | ? |
| CCc1ccccc1NS(=O)(=O)c1cccc2nsnc12 | -13% | -4% | . | . | -2% | 5% | . | . |
| COc1ccc(NC(=O)COC(=O)c2ccc(OC)c(S(=O)(=O)N3CCCC3)c2)cc1OC | -16% | 7% | . | 8% | . | -2% | . | 3% |
| Cc1ccc(S(=O)(=O)N(C)CC(=O)N2CCCCCC2)cc1 | 4% | 4% | . | . | 15% | 2% | . | . |

(continued)
| compound | StopGo reporter | RE007 growth inh | Cruzain inh Det | Marburg entry inh | NS1 inh | SARS PLpro yeast | Cruzain noTriton | Lassa entry inh |
| --- | --- | --- | --- | --- | --- | --- | --- | --- |
| CC(C)c1c(O)nc(SCc2ccccc2)[nH]c1=O | -9% | 14% | 1.8% | 2% | -9% | -4% | ? | -14% |
| COc1ccc(-c2cc(C(F)(F)F)nc(-n3cc(Cl)cn3)n2)cc1 | ? | -17% | -21% | 2% | -3% | -26% | ? | 7% |
| CCOC(=O)c1ccccc1NC(=O)C(C)Oc1ccccc1 (centres undefined) | -11% | -10% | -4.9% | -6% | -15% | -13% | -1% | ? |
| COc1ccc(S(=O)(=O)Nc2c(O)c3ccccc3oc2=O)cc1 | 3% | 1% | . | 6%[46.1 µM] | 3% | 7% | . | 6%[46.1 µM] |
| O=C(O)c1ccc2c(c1)C(=O)N(c1ccc(C(=O)OCC(=O)c3ccccc3)cc1)C2=O | 31%[activator] | -6% | . | 2%[46.1 µM] | . | . | . | -17% |
| COc1ccccc1N1CCN(CC(=O)Nc2nccs2)CC1 | -11% | -7% | . | 2% | 7% | 1% | . | -2% |
| COc1ccccc1-n1c(/C=C/c2ccccn2)nc2ccccc2c1=O | ? | 18% | . | ? | -4% | 0% | . | ? |
| O=C(c1cccc([N+](=O)[O-])c1)N1CCCN(C(=O)c2cccc([N+](=O)[O-])c2)CC1 | -2% | -8% | -1.4% | -9% | -13% | 0% | 3% | -1% |
| COc1ccc(N2CCN(C(=O)c3c(C)oc4nc(C)nc(N5CCCC5)c34)CC2)cc1 | -5% | . | 7.1% | . | . | . | 3% | -1%[46.1 µM] |
| NC(=O)C1CCN(CC(=O)N2N=CCC2c2ccccc2)CC1 (centres undefined) | 2% | 11% | . | . | -3% | 0% | . | . |
| Cc1ccc(S(=O)(=O)NN2C(=O)/C(=C/c3ccc(F)cc3)SC2=S)cc1 | -11% | -5% | . | ? | -2% | -1% | . | ? |
| CC(CN1C(C)CCCC1C)OC(=O)c1ccc(Cl)cc1 (centres undefined) | -26% | -5% | . | . | -2% | -1% | . | . |
| COc1ccc(-n2nc(C(=O)N3CCC(N4CCCCC4)CC3)c3c4ccccc4n(C)c3c2=O)cc1 | -25% | -5% | . | ? | 3% | -4% | . | 11%[46.1 µM] |
| CNC(=O)c1[nH]cnc1C(=O)N[C@@H](CCCCNC(=O)OC(C)(C)C)C(=O)OC(C)(C)C | -19% | -5% | . | . | 1% | -2% | . | . |
| CC(=O)c1cccc(Nc2nc(-c3ccccc3Cl)nc3ccccc23)c1 | 0% | . | -8.2% | . | . | . | -10% | ? |
| CCCCC(=O)N/N=C/c1sccc1C | 34%[activator] | 1% | -4.1% | -9% | 3% | 0% | 12% | ? |
| CCOC(=O)c1ccc(N/C=C/C(=O)c2ccc(OC)cc2)cc1 | . | 2% | 2.1% | -3% | -9% | ? | -8% | -28% |
| O=C(COc1ccc2ccc(=O)oc2c1)Nc1nccs1 | 41%[activator] | -14% | . | . | 0% | -1% | . | . |
| COc1ccc(/C=N/NC(=O)CN2CCCC2)cc1 | 13% | 6% | . | . | 10% | 2% | . | . |
| NC(=O)c1cc(-c2cccnc2)nc2ccc(Br)cc12 | -12% | 1% | . | . | 5% | 3% | . | . |
| CC(C)Cn1c(=O)c(-[n+]2ccccc2)c([O-])c2ccccc21 | -13% | -8% | . | 1%[46.1 µM] | . | 3% | . | -12%[46.1 µM] |
| CCCCCn1c(CNC(=O)c2cccs2)nc2ccccc21 | . | 10% | -5.2% | ? | -7% | -3% | 17% | 2% |
| COc1ccc(C=NNC(=O)CCCC(=O)NN=Cc2ccc(OC)c(OC)c2)cc1OC | -7% | -13% | . | -2% | . | . | . | 16% |
| CC(C)OCCCNC(=O)c1c(N)n(/N=C/c2ccccn2)c2nc3ccccc3nc12 | -25% | ? | -5.0% | ? | 8.9µM* | 1% | ? | -25% |
| O=C(NOC(=O)c1c(F)cccc1Cl)c1ccc(Cl)c(Cl)c1 | 40%[activator] | 5% | . | 21% | -7% | -3% | . | ? |
| Cc1ccc(C)c(NC(=O)CCNS(=O)(=O)c2ccc3[nH]c(=O)oc3c2)c1 | -1% | 0% | . | . | 10% | 6% | . | . |
| CCC(C)(C)NC(=O)c1ccc2c(c1)S(=O)(=O)c1ccccc1C2=O | 5% | 33% | -0.4% | ? | -10% | . | -13% | 7% |

A run of entries of the results above, for reference:
| compound | StopGo reporter | RE007 growth inh | Cruzain inh Det | Marburg entry inh | NS1 inh | SARS PLpro yeast | Cruzain noTriton | Lassa entry inh |
| --- | --- | --- | --- | --- | --- | --- | --- | --- |
| CCOC(=O)c1ccccc1NC(=O)C(C)Oc1ccccc1 (centres undefined) | -11% | -10% | -4.9% | -6% | -15% | -13% | -1% | ? |
| COc1ccc(S(=O)(=O)Nc2c(O)c3ccccc3oc2=O)cc1 | 3% | 1% | . | 6%[46.1 µM] | 3% | 7% | . | 6%[46.1 µM] |
| O=C(O)c1ccc2c(c1)C(=O)N(c1ccc(C(=O)OCC(=O)c3ccccc3)cc1)C2=O | 31%[activator] | -6% | . | 2%[46.1 µM] | . | . | . | -17% |
| COc1ccccc1N1CCN(CC(=O)Nc2nccs2)CC1 | -11% | -7% | . | 2% | 7% | 1% | . | -2% |
| COc1ccccc1-n1c(/C=C/c2ccccn2)nc2ccccc2c1=O | ? | 18% | . | ? | -4% | 0% | . | ? |
| O=C(c1cccc([N+](=O)[O-])c1)N1CCCN(C(=O)c2cccc([N+](=O)[O-])c2)CC1 | -2% | -8% | -1.4% | -9% | -13% | 0% | 3% | -1% |
